PINK1 expr mod – A Quantitative High throughput Screen to Identify Chemical Modulators of PINK1 Expression | Potency, µM (series often up to 76.6 µM), for the others: at the top dose activation (PINK1 increase), most hits filed as activators | PINK1 immunofluorescence, high-content cytometry, 24 h | hit rate 0.2% among 410,000; active = well fitted activation curve with a large enough effect; inconclusive = small, poorly fitted or top-dose-only effect; inactive = flat fitted curve, though single readings scatter; cell line not stated here;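 also: potency is read from the fitted curve at half-maximal effect; % of control where 0% means no effect; nearly all actives have a fitted effect of over 65% in size; a mitochondrial uncoupler was the plate control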
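PINK1 protein level read as immunofluorescence by microplate cytometer in a fixed, stained stable cell line after 24 h exposure to five compound concentrations, with CCCP as control.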
D2 ag – Beta-Arrestin HTS for Positive Allosteric Modulators of the Human D2 Dopamine Receptor: Agonists. hit rate 0.084% among 360,000. activation, % (test concentration not listed). DiscoveRx PathHunter D2 beta-arrestin, luminescence, 90 min; 100% = 57 uM dopamine signal; in the data active = activation above about 40%; inconclusive = about 15% to 40%; inactive = below about 15%; also: compound concentration not given in the record; the text of the record calls up to 30% inactive
Target sequence (P14416 whole entry, looked up): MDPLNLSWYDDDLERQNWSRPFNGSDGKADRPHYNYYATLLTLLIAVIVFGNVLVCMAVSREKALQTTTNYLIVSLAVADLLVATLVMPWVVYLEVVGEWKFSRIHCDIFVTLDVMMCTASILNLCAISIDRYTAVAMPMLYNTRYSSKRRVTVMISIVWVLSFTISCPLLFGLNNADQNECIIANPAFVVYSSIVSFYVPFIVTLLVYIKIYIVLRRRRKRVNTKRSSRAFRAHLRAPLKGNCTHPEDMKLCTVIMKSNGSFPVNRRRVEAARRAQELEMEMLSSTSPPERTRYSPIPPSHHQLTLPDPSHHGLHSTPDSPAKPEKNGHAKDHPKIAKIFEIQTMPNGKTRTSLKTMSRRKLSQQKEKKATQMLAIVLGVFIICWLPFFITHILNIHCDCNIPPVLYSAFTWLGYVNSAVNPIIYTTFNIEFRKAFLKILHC
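Agonist mode: compounds alone added to overnight-plated D2 PathHunter cells for 90 min at 37 C, with 57 uM final dopamine (EC100) defining full response. Beta-arrestin recruitment detected by chemiluminescent reagent, read after 1 h at ambient temperature.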
TRPML1 blocker – qHTS for Inhibitors of the Human Mucolipin Transient Receptor Potential 1 (TRPML1). Mucolipin-1 (Homo sapiens), Q9GZU1. hit rate 0.02% among 390,000. activity change, negative = inhibition, % (concentration not given with the values). TRPML1-inducible cells, Ca2+ dye fluorescence, FDSS; stronger effect = lower value; inhibition of EC80 agonist-evoked calcium signal; in the data active means activity change below about -50%; inconclusive means about -30% to -50%; inactive means above about -30%;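 also: stimulus is agonist 54-4 at its EC80 concentration; % is scaled to controls: 0 for no effect and ±100 for the full control effect; compound concentration not given in the record; the text of the record puts the active cut at -80%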
Target sequence (Q9GZU1 whole entry, looked up): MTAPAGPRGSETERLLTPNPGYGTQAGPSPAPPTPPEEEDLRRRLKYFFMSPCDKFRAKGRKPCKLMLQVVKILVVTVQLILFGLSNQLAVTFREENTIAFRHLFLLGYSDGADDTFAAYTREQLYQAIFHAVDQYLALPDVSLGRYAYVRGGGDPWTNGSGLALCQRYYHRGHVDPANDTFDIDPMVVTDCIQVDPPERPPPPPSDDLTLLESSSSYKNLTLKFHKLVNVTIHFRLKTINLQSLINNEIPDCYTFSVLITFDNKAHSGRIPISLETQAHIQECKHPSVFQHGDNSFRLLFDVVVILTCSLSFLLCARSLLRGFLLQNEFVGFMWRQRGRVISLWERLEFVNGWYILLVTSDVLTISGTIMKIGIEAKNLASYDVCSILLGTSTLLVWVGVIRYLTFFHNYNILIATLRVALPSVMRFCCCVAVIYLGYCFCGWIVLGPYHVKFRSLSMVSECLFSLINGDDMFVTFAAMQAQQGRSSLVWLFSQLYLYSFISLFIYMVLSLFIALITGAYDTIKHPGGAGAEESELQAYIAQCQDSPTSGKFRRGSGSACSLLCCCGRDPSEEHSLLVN
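TRPML1-DL cells, Tet-induced overnight (~16 h, 37 °C) at 1,500 cells/well, were loaded with Ca8 no-wash dye plus quencher for 45-90 min at room temperature. Compounds were pinned during FDSS kinetic reading; agonist 54-4 at EC80 (4 uM final) then added.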
D2 PAM – Beta-Arrestin HTS for Positive Allosteric Modulators of the Human D2 Dopamine Receptor: Potentiators | D(2) dopamine receptor (Homo sapiens), P14416 | DiscoveRx D2 beta-arrestin cells, luminescence, 90 min; 100% = 57 uM dopamine signal | potentiation, % (concentration not given with the values) | hit rate 0.23% among 360,000; active = potentiation of 50% or more; inconclusive = 30% to 50%; inactive = 30% or less;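 also: compound concentration not given in the record; tested on top of an EC20 dose of dopamine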
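PathHunter D2 cells, attached overnight at 37 deg C, received compound in DMSO plus dopamine at EC20 (50 nM final) for 90 min at 37 deg C. Beta-arrestin recruitment was read as luminescence after 1 h with detection reagent at ambient temperature.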
TRPML1 ag – qHTS for Agonists of the Human Mucolipin Transient Receptor Potential 1 (TRPML1). hit rate 0.12% among 410,000. activation, % (concentration not given with the values). TRPML1-expressing cells, Ca2+ dye fluorescence, FDSS; host cell line not named in the record; reference of the full effect not given here. AID 624414, 2012. Mucolipin-1 (Homo sapiens), Q9GZU1; in the data active = activation above about 50%; inconclusive = about 30% to 50%; inactive = below about 30%; also: 0% is about no effect; the text of the record puts the active cut at 80%
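Kinetic FDSS Ca2+ read in Tet-induced TRPML1-DL cells (ABD Ca8 dye plus quencher, 45-90 min RT loading): baseline, then compound, then 110 s agonist window; EC80 agonist 54-4 at 4uM final added afterwards for a 110 s antagonist window.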
Six1-Eya2 inh – qHTS Assay for Inhibitors of the Six1/Eya2 Interaction; Homeobox protein SIX1 (Homo sapiens) + Protein phosphatase EYA2 (Homo sapiens), …; AlphaScreen GST-Six1/His-Eya2 binding, biochemical; stronger effect = lower value; control for the full effect not named in the record; activity change, % (no concentration beside the values); hit rate 0.56% among 360,000; AID 651725, 2012; in the data active = activity change below about -65%; inconclusive = about -30% to -65%; inactive = above about -30%; also: % is scaled to controls: 0 for no effect and ±100 for the full control effect; compound concentration not given in the record
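Six1/Eya2 binding was read as AlphaScreen signal after compounds were pinned into GST-Six1 plus His-tagged Eya2 (5X stock 250/500 nM) in pH 8.0 Tris/NaCl/TCEP buffer, beads added, then incubated 1 h, 37 C, dark.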
Active calls of the source: *. No enrichment for hits. Share with any hit: about 1%.

What do the screens show for `COc1ccc(S(=O)(=O)N2CCCC(C(=O)NCC3CCCO3)C2)cc1Cl` (stereo not given)?
PINK1 expr mod: 3.7%; D2 ag: -3.9; TRPML1 blocker: 16; D2 PAM: -7; TRPML1 ag: 0.0; Six1-Eya2 inh: -2

Results for COCCCNC(=O)CCn1c(=O)c2ccccc2n(CC(=O)Nc2cc(Cl)ccc2OC)c1=O ?
PINK1 expr mod: 2.4%; TRPML1 blocker: 27; TRPML1 ag: -0.4

Results for COc1ccc(-c2nonc2NC(=O)c2oc3ccccc3c2C)cc1OC ?
PINK1 expr mod: 0.1%; D2 ag: 8.6; TRPML1 blocker: 59; D2 PAM: -2; TRPML1 ag: 2.0; Six1-Eya2 inh: 2

What do the screens show for `CC1CN(C(=O)c2cc(F)c(F)cc2Cl)CC(C)O1` (stereo not given)?
PINK1 expr mod: inconclusive; D2 ag: -2.1; TRPML1 blocker: 4; D2 PAM: 3; TRPML1 ag: -0.3; Six1-Eya2 inh: 0

Results for O=C(NCC1CCCO1)C(c1ccco1)N(Cc1ccc(F)cc1)C(=O)CN1C(=O)c2ccccc2S1(=O)=O (stereo not given) ?
PINK1 expr mod: 0.1%; D2 ag: -5.7; TRPML1 blocker: 2; D2 PAM: -8; TRPML1 ag: -1.2; Six1-Eya2 inh: 9

Results for O=C(NNC(=O)c1cccc(S(=O)(=O)N2CCN(c3ccccc3)CC2)c1)c1ccc(Cl)cc1 ?
PINK1 expr mod: -1.1%; D2 ag: -2.5; TRPML1 blocker: -11; D2 PAM: -3; TRPML1 ag: 0.4; Six1-Eya2 inh: -1

How did COc1ccccc1/C=N/Nc1nc(C)c(C(C)=O)s1 do in these assays?
PINK1 expr mod: 3.4%; D2 ag: 0.9; TRPML1 blocker: -1; D2 PAM: -3; TRPML1 ag: -1.2; Six1-Eya2 inh: 3

How did CNC(=O)C(Sc1ccccc1)c1ccccc1 (stereo not given) do in these assays?
PINK1 expr mod: -0.7%; D2 ag: 1.1; TRPML1 blocker: 26; D2 PAM: -2; TRPML1 ag: 3.0; Six1-Eya2 inh: 3

How did CCOC(=O)c1cnn(-c2ccccc2)c1-n1cccc1C(=O)C(=O)N(C)C do in these assays?
PINK1 expr mod: 0.6%; D2 ag: -4.5; TRPML1 blocker: 0; D2 PAM: -5; TRPML1 ag: -0.4; Six1-Eya2 inh: 15

How did COc1ccc(CC(=O)N2CCN=C2SC)cc1 do in these assays?
PINK1 expr mod: 4.6%; D2 ag: -1.3; TRPML1 blocker: 5; D2 PAM: -2; TRPML1 ag: -0.2; Six1-Eya2 inh: -6

How did Cc1c(C)n(Cc2ccc(Cl)cc2)c2ccc(C(=O)NCCCN3CCOCC3)cc12 do in these assays?
PINK1 expr mod: -2.4%; D2 ag: -2.1; TRPML1 blocker: 32; D2 PAM: -27; TRPML1 ag: 0.3; Six1-Eya2 inh: -10

What do the screens show for `CCn1c2c(c(=O)n3ncc(C(=O)Nc4cc(Cl)ccc4C)c13)CN(Cc1ccc(OC)cc1)CC2`?
PINK1 expr mod: 2.1%; TRPML1 blocker: -6; TRPML1 ag: 2.4

Filtered by structure, those above with fluorine (2)
What do the screens show for `CC1CN(C(=O)c2cc(F)c(F)cc2Cl)CC(C)O1` (stereo not given)?
PINK1 expr mod: inconclusive; D2 ag: -2.1; TRPML1 blocker: 4; D2 PAM: 3; TRPML1 ag: -0.3; Six1-Eya2 inh: 0

Results for O=C(NCC1CCCO1)C(c1ccco1)N(Cc1ccc(F)cc1)C(=O)CN1C(=O)c2ccccc2S1(=O)=O (stereo not given) ?
PINK1 expr mod: 0.1%; D2 ag: -5.7; TRPML1 blocker: 2; D2 PAM: -8; TRPML1 ag: -1.2; Six1-Eya2 inh: 9

Next section.
Results for CC(C)n1c(SCC(=O)Nc2nncs2)nnc1C1CC1 ?
PINK1 expr mod: -0.1%; D2 ag: -3.3; TRPML1 blocker: 5; D2 PAM: -8; TRPML1 ag: -0.3; Six1-Eya2 inh: -1

How did COc1cccc(-c2ccc(NC(=O)C3CCCN(Cc4cnn(C(C)C)c4)C3)cc2)c1 (stereo not given) do in these assays?
PINK1 expr mod: -1.5%; D2 ag: -1.3; TRPML1 blocker: 3; D2 PAM: -20; TRPML1 ag: -0.3; Six1-Eya2 inh: -15

Results for CCOC(=O)N1C2C=C(C)[C@@H]2[C@@H]2CC(=O)N21 (stereo not given in full) ?
PINK1 expr mod: -3.8%; D2 ag: -1.9; TRPML1 blocker: 21; D2 PAM: 4; TRPML1 ag: -0.6; Six1-Eya2 inh: 9

What do the screens show for `CNc1nnc(-c2ccco2)s1`?
PINK1 expr mod: 0.7%; D2 ag: -2.8; TRPML1 blocker: -19; D2 PAM: -21; TRPML1 ag: -1.0; Six1-Eya2 inh: 27

Results for CCOC(=O)c1c(C)[nH]c(C(=O)Cn2nnc(-c3ccccc3)n2)c1C ?
PINK1 expr mod: 9.6%; D2 ag: 2.2; TRPML1 blocker: -15; D2 PAM: 18; TRPML1 ag: 2.3; Six1-Eya2 inh: 0

Results for CCOc1ccc(Br)cc1C1=NN(C(C)=O)C(c2ccc([N+](=O)[O-])s2)O1 (stereo not given) ?
PINK1 expr mod: -1.8%; D2 ag: 8.2; TRPML1 blocker: 9; D2 PAM: -3; TRPML1 ag: 0.3; Six1-Eya2 inh: -10

What do the screens show for `COCCN(C(=O)COC(=O)/C=C/c1ccc(SC)cc1)c1c(N)n(Cc2ccccc2)c(=O)[nH]c1=O`?
PINK1 expr mod: 4.6%; D2 ag: 2.5; TRPML1 blocker: 21; D2 PAM: 5; TRPML1 ag: 2.2; Six1-Eya2 inh: 4

How did CC(Oc1ccc(Br)cc1)C(=O)Nc1ccc(N2CCOCC2)cc1N1CCOCC1 (stereo not given) do in these assays?
PINK1 expr mod: 5.0%; D2 ag: 1.3; TRPML1 blocker: -8; D2 PAM: -18; TRPML1 ag: 23; Six1-Eya2 inh: 4

Results for O=C(Cc1ccccc1)NCCn1ccc2ccccc21 ?
PINK1 expr mod: 1.8%; D2 ag: -6.2; TRPML1 blocker: -3; D2 PAM: -9; TRPML1 ag: 1.0; Six1-Eya2 inh: 2

Results for COc1ccc(C)cc1N(CC(=O)N/N=C/c1ccc2c(c1)OCO2)S(C)(=O)=O ?
PINK1 expr mod: 3.0%; D2 ag: -1.4; TRPML1 blocker: -13; D2 PAM: 5; TRPML1 ag: 0.6; Six1-Eya2 inh: 1

How did Cc1cc(O)c(C(C)C)cc1NC(=O)c1ccccc1Cl do in these assays?
PINK1 expr mod: 0.5%; D2 ag: -7.0; TRPML1 blocker: 6; D2 PAM: -11; TRPML1 ag: -0.6; Six1-Eya2 inh: -2

Results for COc1ccccc1CNC(=O)CC1C(=O)NCCN1C1Cc2ccccc2C1 (stereo not given) ?
PINK1 expr mod: 0.5%; D2 ag: 4.6; TRPML1 blocker: -1; D2 PAM: -8; TRPML1 ag: -0.3; Six1-Eya2 inh: 0

What do the screens show for `CN(CCC#N)C(=O)COC(=O)c1ccc2c(c1)C(=O)N(C1CCCCC1)C2=O`?
PINK1 expr mod: -0.6%; D2 ag: -2.3; TRPML1 blocker: 0; D2 PAM: -5; TRPML1 ag: 0.3; Six1-Eya2 inh: 3

Results for Cc1cc(-c2ccccc2)c2c3c(cn2n1)c(=O)n(C)c(=O)n3C ?
PINK1 expr mod: -2.2%; D2 ag: 0.7; TRPML1 blocker: 7; D2 PAM: -12; TRPML1 ag: 0.8; Six1-Eya2 inh: inconclusive

What do the screens show for `O=[N+]([O-])c1cccc(/C=N/NC2=NS(=O)(=O)c3ccccc32)c1`?
PINK1 expr mod: -0.1%; D2 ag: -2.1; TRPML1 blocker: 16; D2 PAM: 0; TRPML1 ag: 0.6; Six1-Eya2 inh: -1

What do the screens show for `CCOC1=C2CN(S(=O)(=O)c3ccc(C)cc3)[C@H](c3ccc(CC)cc3)C[C@@H]2N(S(=O)(=O)c2ccc(C)cc2)[C@H](c2ccccc2)C1`?
PINK1 expr mod: 2.8%; D2 ag: -1.4; TRPML1 blocker: -1; D2 PAM: -4; TRPML1 ag: 4.1; Six1-Eya2 inh: 5

Results for C[n+]1cccc(C(=O)N/N=C/c2ccc3c(c2)OCO3)c1 ?
PINK1 expr mod: 5.7%; D2 ag: 1.0; TRPML1 blocker: 5; D2 PAM: -3; TRPML1 ag: -0.4; Six1-Eya2 inh: -5

Results for COc1c(C(=O)Nc2ccc(Cc3ccncc3)cc2)ccc2ccccc12 ?
PINK1 expr mod: 2.4%; D2 ag: 3.2; TRPML1 blocker: 53; D2 PAM: 5; TRPML1 ag: 3.1; Six1-Eya2 inh: 2

Results for O=C(N/C=C\c1ccccc1)NCc1ccc(Cl)cc1 ?
PINK1 expr mod: -0.4%; D2 ag: -2.5; TRPML1 blocker: 5; D2 PAM: -28; TRPML1 ag: -0.7; Six1-Eya2 inh: -19

What do the screens show for `COc1cc(C(=O)Nc2nnc(CC(=O)NCc3ccccc3)s2)cc(OC)c1OC`?
PINK1 expr mod: 3.8%; D2 ag: -0.9; TRPML1 blocker: -9; D2 PAM: -13; TRPML1 ag: -0.7; Six1-Eya2 inh: -3

Results for COc1ccccc1NS(=O)(=O)c1ccc(-c2cnc(C3CC3)o2)cc1 ?
PINK1 expr mod: 1.6%; D2 ag: -3.8; TRPML1 blocker: -23; D2 PAM: -9; TRPML1 ag: 0.2; Six1-Eya2 inh: -15

How did O=C(NC(=S)Nc1ccccc1N1CCCC1)c1cccc(F)c1 do in these assays?
PINK1 expr mod: 2.9%; D2 ag: -2.1; TRPML1 blocker: -12; D2 PAM: -9; TRPML1 ag: 1.5; Six1-Eya2 inh: inconclusive

What do the screens show for `O=C(NCC(c1ccco1)N1CCCC1)c1cn(Cc2ccccc2)nc1-c1ccccc1` (stereo not given)?
PINK1 expr mod: -0.5%; D2 ag: 0.4; TRPML1 blocker: 4; D2 PAM: -23; TRPML1 ag: 0.3; Six1-Eya2 inh: -5

How did O=C(c1ccc2c(c1)N(Cc1ccccc1F)C(=O)c1ccccc1S2(=O)=O)N1CCc2ccccc21 do in these assays?
PINK1 expr mod: 4.7%; TRPML1 blocker: 1; TRPML1 ag: -0.6

Results for Cn1c(SCCOc2ccc(F)cc2)nnc1-c1ccncc1 ?
PINK1 expr mod: -1.2%; D2 ag: -1.1; TRPML1 blocker: 11; D2 PAM: -5; TRPML1 ag: 0.7; Six1-Eya2 inh: -6

Assay outcomes: PubChem BioAssay, National Center for Advancing Translational Sciences (NCATS)
